Screening results deposited in PubChem BioAssay by ICCB-Longwood Screening Facility, Harvard Medical School.
Sa growth 42C – inhibitors of Staphylococcus aureus growth at 42 °C; S. aureus RN4220 growth, OD600, 20 h; hits give low values; relative growth, % (test concentration not listed); actives 0.53% (n = 170,000); AID 720641;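 active = growth at 42 °C up to 50% and 20 or more points under that at 30 °C, or under 10% at both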;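 note: 300 nL library stock went into each well; scaled to the means of positive and negative controls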
HCMV NEC inh – inhibitors of HCMV UL50-UL53 nuclear egress complex interaction | inhibition, % (test concentration not listed) | HTRF UL50-UL53 interaction, normalized percent inhibition | actives 0.15% (n = 190,000);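 active = both replicates at 50% or more, plus weaker picks with an unusually low signal ratio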;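 note: stock transfer was 100 nL into about 20 µL; 0% = negative control wells and 100% = wells with untagged competitor protein; inactives centre near -12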
GIV Gai3 FP – GIV-Galpha-i interaction inhibition. P08753. Galpha-i3/FITC-GIV peptide fluorescence polarization, 90 min; hits give low values; scaled: aluminum fluoride 0%, vehicle 100%. percent of control (FP), % (concentration not given with the values). actives 0.42% (n = 210,000). AID 1224905;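 active = replicate mean at 85% of control or lower, very high polarization wells dropped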;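 note: wells of about 15 µL received 100 nL stock; the first replicate is given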
Target sequence (P08753 whole entry, looked up): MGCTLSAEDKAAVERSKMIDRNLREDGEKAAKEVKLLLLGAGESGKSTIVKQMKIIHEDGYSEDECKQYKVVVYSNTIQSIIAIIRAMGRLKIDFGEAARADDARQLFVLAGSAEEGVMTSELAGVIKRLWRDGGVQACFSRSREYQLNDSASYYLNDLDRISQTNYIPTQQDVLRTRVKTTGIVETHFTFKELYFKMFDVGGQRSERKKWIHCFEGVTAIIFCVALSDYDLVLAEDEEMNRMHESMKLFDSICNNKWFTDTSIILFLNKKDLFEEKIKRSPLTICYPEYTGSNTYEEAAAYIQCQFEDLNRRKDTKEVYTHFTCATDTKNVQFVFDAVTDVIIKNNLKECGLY
Sa growth 42C second temp – recorded beside Sa growth 42C, whose call it bears; relative growth, %; measured here: growth at 30 °C;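 optical density after 20 h as mean of two plates; 100% = untreated growth and lower means inhibition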
* = called active by the depositor; · = not tested or not shown; & = joins results of further samples. Compounds as they come (roughly 0.82% active in at least one column).

#	SMILES	HCMV NEC inh	Sa growth 42C second temp
1	Cc1ccc(-n2nc3c(=O)n(C(C)C(=O)NCc4ccccc4C)nc(C)c3c2C)cc1 (configuration not stated)	·	97
2	CC(=O)N1N=C(c2ccccc2)CC1Cc1cc2cccc(C)c2nc1Cl (configuration not stated)	-9	·
3	COC(=O)C1=C(C(=O)OC)SC(=C2C(=S)C(C)(C)N(C(=O)c3sc4ccccc4c3Cl)c3c(C)cccc32)S1	6	·
4	CCOC(=O)C1=CNc2ccccc2S1	-137	72
5	O=C(CC(c1ccccc1)c1cc(Cl)ccc1O)N1CCCCC1 (configuration not stated)	·	97
6	CCNc1nc(NCC)nc(N(C)N)n1	-18	45
7	CC(C)c1nc(N)n[nH]1	-12	93
8	CN(C)S(=O)(=O)c1ccc2c(c1)N(CC(=O)Nc1ccc(F)cc1)C(=O)CS2	·	88
9	CCOC(=O)c1ccc(-n2c(N)c(C(=O)OC)c3nc4ccccc4nc32)cc1	·	84
10	Cc1nnc(NC(=O)C(C)Sc2nncn2C)s1 (configuration not stated)	-18	93
11	O=C(NCc1cccs1)C1(c2ccccc2)CC1	-5	104
12	Cc1cc(C)n(-c2nc(C)nc3sc4c(c23)CCC4)n1	-15	90

#	Sa growth 42C	GIV Gai3 FP
1	102	106
2	·	106
3	·	102
4	74	120&118
5	118	108
6	80	101
7	108	99
8	108	102
9	86	100
10	108	100
11	118	·
12	99	·

Some of these compounds in order of the GIV Gai3 FP value, highest first:
nr	canonical_smiles	GIV Gai3 FP
5	O=C(CC(c1ccccc1)c1cc(Cl)ccc1O)N1CCCCC1 (configuration not stated)	108
2	CC(=O)N1N=C(c2ccccc2)CC1Cc1cc2cccc(C)c2nc1Cl (configuration not stated)	106
10	Cc1nnc(NC(=O)C(C)Sc2nncn2C)s1 (configuration not stated)	100

Further compounds
#	SMILES	HCMV NEC inh	Sa growth 42C second temp
13	CCN(CC)S(=O)(=O)c1ccc(C(=O)N(c2ccc(C)c(Cl)c2)C2C=CS(=O)(=O)C2)cc1 (configuration not stated)	17	·
14	S=c1[nH]nc(Cn2cnc3ccccc32)n1-c1ccccc1Cl	-31	87
15	O=C(NCCc1ccsc1)c1cc2c(s1)-c1ccccc1OC2	·	84
16	O=C(Cc1csc2nc(-c3ccccc3)cn12)NCc1ccc(F)cc1	-12	92
17	CCc1ccc(NC(=O)CCC(=O)Nc2ccc3nc(N4CCCCC4)cc(C)c3c2)cc1	·	88
18	O=c1cc(Nc2cccc(Br)c2)[nH]c(=O)[nH]1	-23	65
19	Cc1ccccc1OCC(=O)Oc1ccc(-c2cnc3ccccc3n2)cc1	-43	83
20	Cc1c(C(=O)NCc2ccccc2)oc2ccccc12	0	87
21	CCCCOc1ccccc1C(=O)N(Cc1cccc(F)c1)C1CCS(=O)(=O)C1 (configuration not stated)	-10	76
22	COc1cc(OC)c(NC(=O)CSc2nccn2C)cc1Cl	-2	90
23	CCOC(=O)c1cccc(NS(=O)(=O)c2ccc3c(c2)CCCN3C(C)=O)c1	-6	87
24	CCn1c(SCC(=O)NCCc2ccccc2)nnc1-c1c[nH]c2ccccc12	·	95

#	Sa growth 42C	GIV Gai3 FP
13	·	99
14	83	·
15	111	99
16	108	101&99
17	157	105
18	90	99
19	116	102
20	99	·
21	108	98
22	96	104
23	114	106
24	108	102

3 structures already listed, sorted by count of non-hydrogen atoms, descending:
#	SMILES	HCMV NEC inh	Sa growth 42C second temp
24	CCn1c(SCC(=O)NCCc2ccccc2)nnc1-c1c[nH]c2ccccc12	·	95
19	Cc1ccccc1OCC(=O)Oc1ccc(-c2cnc3ccccc3n2)cc1	-43	83
20	Cc1c(C(=O)NCc2ccccc2)oc2ccccc12	0	87

#	Sa growth 42C	GIV Gai3 FP
24	108	102
19	116	102
20	99	·

The listing continues.
#	SMILES	HCMV NEC inh	Sa growth 42C second temp
25	Cc1ccc2nc(N=C(N)N)nc(C)c2c1	-10	90
26	Cn1c(O)c(N=N)c2ccccc21	-48	90
27	Cc1ccc(-c2cc(Cc3ccc(N(C)C)cc3)c(=O)[nH]n2)cc1	4	103
28	CCOC(=O)C1=C(C)N=c2s/c(=C3\C(=O)N(CC)c4ccccc43)c(=O)n2C1c1ccc(OC)cc1 (configuration not stated)	-17	·
29	COc1ccccc1-c1nc(SCC(=O)NCc2ccc(C)cc2)c2c(=O)n(C)c(=O)n(C)c2n1	·	91
30	CC1CCc2c(sc3nc(-c4cccs4)oc(=O)c23)C1 (configuration not stated)	6	·
31	N#C/C=C(\Sc1nc2ccccc2o1)c1ccccc1	-23	86
32	O=C1CC(c2ccc(F)cc2)CC(O)=C1C1NCCc2ccccc21 (configuration not stated)	-8	·
33	CCCCn1c2ccc(F)cc2c2nnc(SCCN(CC)CC)nc21	-36	99
34	Fc1ccc(CN2CCc3nc(Nc4ccccc4)ncc3C2)cc1F	·	88
35	Fc1c(CN2CCOCC2)cccc1CN1CCOCC1	-14	88
36	Cc1ccc(C(CC(=O)Nc2nc(C)cs2)N2Cc3ccccc3C2=O)cc1 (configuration not stated)	-5	·

#	Sa growth 42C	GIV Gai3 FP
25	96	110
26	101	·
27	105	112
28	·	109
29	100	97
30	·	106
31	104	·
32	·	98
33	105	107
34	104	103
35	88	104
36	·	101

Laid out differently: entries from further up
#28 CCOC(=O)C1=C(C)N=c2s/c(=C3\C(=O)N(CC)c4ccccc43)c(=O)n2C1c1ccc(OC)cc1 (configuration not stated)
  HCMV NEC inh: -17	Sa growth 42C second temp: ·	Sa growth 42C: ·	GIV Gai3 FP: 109

#29 COc1ccccc1-c1nc(SCC(=O)NCc2ccc(C)cc2)c2c(=O)n(C)c(=O)n(C)c2n1
  HCMV NEC inh: ·	Sa growth 42C second temp: 91	Sa growth 42C: 100	GIV Gai3 FP: 97

#30 CC1CCc2c(sc3nc(-c4cccs4)oc(=O)c23)C1 (configuration not stated)
  HCMV NEC inh: 6	Sa growth 42C second temp: ·	Sa growth 42C: ·	GIV Gai3 FP: 106

#31 N#C/C=C(\Sc1nc2ccccc2o1)c1ccccc1
  HCMV NEC inh: -23	Sa growth 42C second temp: 86	Sa growth 42C: 104	GIV Gai3 FP: ·

(cont.)
#	SMILES	HCMV NEC inh	Sa growth 42C second temp
37	Cc1csc(=O)n1CCOC(=O)c1ccc(Br)cc1	-16	97
38	CC(=O)c1ccc(NC(=O)Cn2cnc3nc4c(cc3c2=O)CC(C)CC4)cc1 (configuration not stated)	·	86
39	Cc1cccc(N2CCN(C3(c4ccccc4)C(=O)c4ccccc4C3=O)CC2C)c1 (configuration not stated)	13	106
40	CC1=C(C(=O)Nc2cccc(F)c2)C(c2ccc(C(C)(C)C)s2)C2=C(CC(C)(C)CC2=O)N1 (configuration not stated)	4	·
41	CC1CC(C)CN(CC(O)COCc2ccccc2F)C1 (configuration not stated)	2	93
42	Cn1c(SCC(=O)Nc2ccc3c(c2)OCCO3)nnc1C(F)(F)F	6	95
43	COC(=O)c1cc(Nc2nc(-c3cc(OC)c(OC)c(OC)c3)nc3ccccc23)cc(C(=O)OC)c1	-2	·
44	CC1CCN(c2ccc3nnc(CCC(=O)O)n3n2)CC1	-22	86
45	COc1cccc2c1oc(=O)c1c(NC(C)=O)nc3c(c12)CCCCC3	·	87
46	CCNC(=O)N1CCCC(c2cccc(C(=O)NCCN3CCOCC3)c2)C1 (configuration not stated)	-17	·
47	CCOC(=O)c1cnc2c(C)cc(C)cc2c1Nc1cccc(C(=O)O)c1	-59	90
48	CC(C)Cc1nnc(NS(C)(=O)=O)s1	-18	87

#	Sa growth 42C	GIV Gai3 FP
37	75	·
38	98	99
39	106	108
40	·	108
41	84	·
42	101	·
43	·	100
44	94	108
45	122	103
46	·	106
47	101	102
48	95	103

Next compounds
#	SMILES	HCMV NEC inh	Sa growth 42C second temp
49	CCOC(=O)C1=NNC2C(=O)N(c3cc(Cl)ccc3OC)C(=O)C12 (configuration not stated)	-10	86
50	Cc1ccc(-n2nc(C(=O)N3CCN(c4ccccc4)CC3)c(=O)n(C)c2=O)cc1	·	102
51	CCOC(=O)c1ccc(N2CCN(c3cccc(Cl)c3)CC2)c(NC(=O)Nc2ccccc2)c1	-9	98
52	O=C1CCCC2=C1C(c1ccco1)N(C(=O)c1ccccc1)c1ccccc1N2 (configuration not stated)	-6	78
53	Cc1nc2ccccn2c1-c1ccnc(SCC(=O)c2cccc(C(F)(F)F)c2)n1	-30	82
54	O=C(NCC1CCCO1)c1cc2n(n1)CCCN(Cc1ccc(F)cc1)C2=O (configuration not stated)	-12	·
55	CCN1C(=O)N/C(=C/c2ccc(OCC(=O)O)cc2)C1=O	-84	87
56	Cc1ccc2c(CN3CCC(C)CC3)cc(=O)oc2c1	-14	95
57	CCC(C)NC(=O)c1cn(CC)c2ccc(S(=O)(=O)N3CCCCC3)cc2c1=O (configuration not stated)	-12	94
58	O=C1COc2ccccc2N1Cc1c(F)cccc1Cl	-8	115
59	CN(C)C(=O)CSc1nc2ccccc2c(=O)n1-c1ccccc1	-2	95
60	CC1CCC(NC(=O)c2ccccc2N)CC1 (configuration not stated)	3	104

#	Sa growth 42C	GIV Gai3 FP
49	129	100
50	102	104
51	96	112
52	84	103
53	116	100
54	·	102
55	91	95
56	92	·
57	106	96
58	115	103
59	107	106
60	102	113

Carrying on.
#	SMILES	HCMV NEC inh	Sa growth 42C second temp
61	Cc1ccc(C)c(Cn2c(=O)n(CCCCC(=O)NCc3ccc4c(c3)OCO4)c(=O)c3ccccc32)c1	-5	88
62	O=C(O)CCCC(=O)Nc1ccccc1-c1ccccc1	-20	83
63	COc1ccc(CC(=O)Nc2nc3c(s2)CCCC3)cc1	4	93
64	COc1cccc(C(=O)NCCc2csc3nc(-c4ccc(C)cc4)nn23)c1OC	·	91
65	CCN(CC)c1ccc(C2C3=C(CC(C)(C)CC3=O)OC3=C2C(=O)CC(C)(C)C3)cc1	·	88
66	O=C(O)C1C2C=CC(O2)C1C(=O)NCc1cccc(Cl)c1 (configuration not stated)	-9	78
67	COC(=O)c1ccc(NC2=NCCCCC2)s1	-42	94
68	CC1=C(C(=O)Nc2nc3ccccc3s2)C(c2ccc3c(c2)OCO3)C2=C(CC(C)(C)CC2=O)N1 (configuration not stated)	-8	·
69	COCCCNC(=O)CCC(=O)N1Cc2cccc(OC)c2Oc2ncccc21	·	91
70	Cc1nc(SCC(=O)Nc2sc3c(c2C(N)=O)CCC3)c2c3c(sc2n1)CCCC3	2	·
71	O=C(Nc1ccc(F)c(Cl)c1)N1CCC(CN2CCc3ccccc3C2)CC1	·	94
72	O=C(c1ccc2c(c1)N(Cc1ccccc1F)C(=O)c1ccccc1S2=O)N1CCCCC1 (configuration not stated)	-32	87

#	Sa growth 42C	GIV Gai3 FP
61	91	101
62	96	103
63	103	96
64	134	103
65	92	111
66	89	99
67	94	·
68	·	102
69	80	96
70	·	98
71	118	104
72	83	102

Following part
#	SMILES	HCMV NEC inh	Sa growth 42C second temp
73	COc1ccc(S(=O)(=O)Nc2cc3c(cc2N2CCCCC2)n(C)c(=O)c(=O)n3C)cc1OC	-48	·
74	O=C(CNc1ccc(F)cc1)N/N=C/C1CC=CCC1 (configuration not stated)	-2	96
75	Cc1nnc(N2CCCC(C(=O)NCc3ccccc3F)C2)c2nn(-c3ccc(Cl)cc3)c(C)c12 (configuration not stated)	9	90
76	C=CCNC(=O)Cn1nc(-c2ccccc2)ccc1=O	-7	97
77	O=C(CN1CCN(Cc2ccccc2)CC1)NCc1ccco1	-11	107
78	CC(NC(=O)c1ccccc1C(=O)O)C12CC3CC(CC(C3)C1)C2 (configuration not stated)	·	84
79	Cc1cccc(N2CCN(C(=O)C3CCCN(S(=O)(=O)c4cccc5nsnc45)C3)CC2)c1C (configuration not stated)	-26	91
80	Cc1ccc(Cl)cc1NC(=O)CN1CCCN(Cc2ccccc2Cl)S1(=O)=O	7	·
81	COc1ccc(Cl)cc1N(C)C(=O)C(=O)Nc1ccc2nc3n(c(=O)c2c1)CCCCC3	-21	85
82	NC1=NC(c2ccccc2)n2c(nc3ccccc32)N1 (configuration not stated)	-10	84
83	COC(=O)c1ccc2c(=O)n(CCCCCC(=O)N3CCN(c4cc(C)ccc4C)CC3)c(=O)[nH]c2c1	·	84
84	OC(CN1CCC(O)(c2ccc(Cl)cc2)CC1)c1ccccc1 (configuration not stated)	-9	96

#	Sa growth 42C	GIV Gai3 FP
73	·	103
74	104	·
75	89	102&106
76	101	105
77	107	102
78	110	101
79	100	104
80	·	107
81	105	103
82	93	105
83	114	99
84	100	97

Other results follow:
#	SMILES	HCMV NEC inh	Sa growth 42C second temp
85	COc1ccc(C(=O)Cn2c(=O)n3nc(CCn4nc(C)cc4C)nc3c3cc(OC)c(OC)cc32)cc1	·	96
86	COC(=O)C1=NOC2C(=O)N(c3ccc(OC)cc3)C(=O)C12 (configuration not stated)	·	88
87	Cc1nonc1OCC12CC3CC(CC(C3)C1)C2	·	81
88	O=C(NCCc1nnc2ccc(N3CCCCCC3)nn12)c1ccccc1	-29	85
89	COc1cccc(Nc2ncc3c(n2)CCN(Cc2ccc(OC)c(OC)c2)C3)c1	-10	·
90	CCCCOC(=O)c1ccc(OC(=O)c2cccnc2)cc1	-16	77
91	Clc1cccc(NCc2nnc(SCc3ccccc3)o2)c1	-20	86
92	CC(C)(C)c1csc(NC2=NCCC2)n1	-28	87
93	CC1CCCN(c2csc3ccc(F)cc3c2=O)C1 (configuration not stated)	·	65

#	Sa growth 42C	GIV Gai3 FP
85	108	107
86	92	106
87	100	98
88	99	103
89	·	104
90	95	100
91	105	98
92	106	·
93	101	105
